# Bioassay records deposited in PubChem by several laboratories.
# MLL AF4-AF9 inh – MLL-AF4/AF9 protein interaction inhibition; P42568; AlphaScreen, biotin-AF4 peptide binding to FLAG-AF9; inhibition, % at 10 µM; actives 0.47% (n = 350,000); AID 651704;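 active means every replicate reaching a set inhibition limit, whatever the replicate mean, cut at about 25% in these data; inconclusive means mean inhibition reaches that limit but some replicates miss it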;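 further: 0% = plate neutral control median and 100% = total signal loss; the record names both 10 and 1 µM as test concentration; the first replicate is given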
# UCH37 inh – inhibitors of human deubiquitinating enzyme UCH37 | purified proteasome/UCH37, Ub-AMC cleavage fluorescence | inhibition, % (test concentration not listed) | actives 0.33% (n = 330,000);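 active means mean of two replicates above 20%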;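 further: 0% = compound-free wells with enzyme and 100% = wells lacking proteasome; stock transfer was 100 nL into about 20 µL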
# Target sequence (Q9Y5K5 whole entry, looked up): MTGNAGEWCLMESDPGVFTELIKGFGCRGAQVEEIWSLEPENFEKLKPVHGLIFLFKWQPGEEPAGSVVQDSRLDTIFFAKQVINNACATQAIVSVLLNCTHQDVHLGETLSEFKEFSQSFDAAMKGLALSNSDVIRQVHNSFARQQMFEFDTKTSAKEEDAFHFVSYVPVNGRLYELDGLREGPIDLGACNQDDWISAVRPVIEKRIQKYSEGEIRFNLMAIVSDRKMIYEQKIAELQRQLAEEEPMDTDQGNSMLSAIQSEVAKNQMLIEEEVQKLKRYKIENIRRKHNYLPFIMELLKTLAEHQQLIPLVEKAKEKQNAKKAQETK
#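 Material: Human UCH37 enzyme supplied as purified proteasome complex | Schedule: 30 min compound-proteasome preincubation then 25 min substrate reaction, room temperature | Detection: AMC fluorescence from Ub-AMC cleavage, excitation 355 nm, emission 460 nm | Benchmarks: Wells without proteasome as full block, compound-free enzyme plus substrate as uninhibited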
# HNF4A DNA FP – change in binding of human HNF4 alpha to DNA. P41235. activity change, % at 10 µM. AID 1224865. HNF4a-FITC DNA binding, fluorescence polarization, 1 h. actives 0.3% (n = 360,000); in the data active means activity change above about 30%, passing the limit was not always enough;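 further: controls were the assay level and a saturating level of protein; the project sought stronger binding though the title names inhibitors; some compounds called inactive have numbers as strong as hits; positive values seem to mean higher polarization but the record does not say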
# Target sequence (P41235 whole entry, looked up): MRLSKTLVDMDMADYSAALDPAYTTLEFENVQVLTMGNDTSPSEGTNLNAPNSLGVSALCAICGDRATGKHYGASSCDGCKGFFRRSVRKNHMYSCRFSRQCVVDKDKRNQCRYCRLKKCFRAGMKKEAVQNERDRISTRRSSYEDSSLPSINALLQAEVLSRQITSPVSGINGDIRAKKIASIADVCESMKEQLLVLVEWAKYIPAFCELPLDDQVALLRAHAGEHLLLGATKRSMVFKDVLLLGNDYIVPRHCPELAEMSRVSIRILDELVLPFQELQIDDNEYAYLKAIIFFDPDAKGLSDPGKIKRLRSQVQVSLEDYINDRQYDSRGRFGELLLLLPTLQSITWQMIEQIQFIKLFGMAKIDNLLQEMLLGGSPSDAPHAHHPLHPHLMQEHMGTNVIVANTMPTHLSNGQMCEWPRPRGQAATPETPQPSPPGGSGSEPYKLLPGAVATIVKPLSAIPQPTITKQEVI
# FGF22 binding – shifts melting point of recombinant human FGF22. Q9HCT0. recombinant FGF22 thermal shift, SYPRO orange fluorescence; percent of sucrose octasulfate shift, DMSO zero. calls only at 9.99 µM. actives 1.5% (n = 340,000). AID 651658;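 active means melting point raised past a set limit in the mean and every replicate; inconclusive means no clear call; three in four hits are not shown here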
# Target sequence (Q9HCT0 whole entry, looked up): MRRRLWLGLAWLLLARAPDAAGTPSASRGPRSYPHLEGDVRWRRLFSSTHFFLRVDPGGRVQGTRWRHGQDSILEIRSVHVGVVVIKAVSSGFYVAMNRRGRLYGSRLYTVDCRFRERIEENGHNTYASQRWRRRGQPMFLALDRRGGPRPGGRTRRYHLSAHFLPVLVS
# RanGTP-Impb inh – disruptors of Ran-importin-beta complex formation – biochemical, FRET, CFP-Ran, YFP-importin-beta, homogeneous, primary screen. cell-free CFP-Ran/YFP-importin-beta FRET ratio. inhibition, % (test concentration not listed). actives 1.1% (n = 300,000);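 active means most replicates above 15%; inconclusive means exactly half above 15%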;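 further: 0% = DMSO wells and 100% = Ran loaded with GDP instead of GTP; wells of about 40 µL received 100 nL stock; the first replicate is given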
# Vif A3G – HIV-1 Vif–A3G interaction blockers – biochemical, TR-FRET, GST-Vif 1-94, biotin-A3G peptide, dose response retest, primary screen (AID 1117319); TR-FRET GST-Vif / biotin-A3G peptide binding; higher % means a stronger effect; test concentration not given here; strong numbers were not always called active; inhibition, %, or IC50 in µM where a hit was titrated; actives 0.57% (n = 260,000);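 active means above the screen mean plus three standard deviations and confirmed in dose response; inconclusive means results disagree or hit not tested in dose response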;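 further: Vif residues 1-94 fused to GST binding biotinylated APOBEC3G peptide 110-148; 0% = full assay without inhibitor and 100% = GST in place of GST-Vif; retest series ran down from 100 µM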
# E coli growth – E. coli growth inhibition; actives 0.21% (n = 330,000); Escherichia coli growth, OD600, 23 h; active compounds read low; OD600 absorbance (concentration not given with the values);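 active means OD600 absorbance below the run mean of sample wells minus 3.6 SD, in any replicate, cut at about 0.56 in these data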;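 further: stock transfer was 300 nL into about 60 µL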
# * hit, by the source's call; i = inactive; ? = inconclusive; . = no result given; & = joins results of further samples. These rows are one share of the data; count on the stated rates, not on these rows.
# Each structure is followed by: E coli growth, FGF22 binding, MLL AF4-AF9 inh, Vif A3G, HNF4A DNA FP, UCH37 inh, RanGTP-Impb inh
Cc1nc2ccc(NC(=O)c3cncc(Br)c3)cc2s1
    0.65, i, 6.1, 4%, 0.7, 4.0, 0.2
O=[N+]([O-])c1ccc2[nH]c(=S)sc2c1
    0.57, i, -1.2, -4%, 0.6, 11, .
CN(C)S(=O)(=O)c1cccc(NC(=S)NNC(=O)c2cc3ccccc3cc2O)c1
    ., i, 4.6, 11%, -3.5, ., .
Cc1ccc(C)c(NS(=O)(=O)c2ccc(NC(=O)c3ccco3)cc2)c1
    0.7, ., ., 4%, -2.9, 5.0, 0.9
O=C(NCCOc1nc(N2CCCCC2)nc(N2CCOCC2)n1)Nc1ccccc1
    0.69, ., ., 6%, 3.8, 4.7, 1.0
CCOc1ccc(OCC)c(S(=O)(=O)NCc2cccnc2)c1
    0.7, ., ., ., 0.8, 2.8, 0.4
CCOCc1nnc(NC(=O)c2cccc(OC)c2)s1
    0.68, i, -3.2, -3%, -0.2, 4.0, -0.4
COc1cc(/C=N/Nc2ccc(Cl)nn2)cc(OC)c1O
    ., i, -0.6, -2%, 2.4, ., 0.7
O=C(CN(C(=O)CNC(=O)c1ccco1)c1ccc2c(c1)OCCO2)NC1CCCC1
    0.69, i, 0.3, 27%, -0.9, 6.8, 4.2
COc1ccccc1CNC(=O)CN1C(=O)c2ccccc2S1(=O)=O
    0.62, i, 1.4, 3%, 3.4, 1.4, 1.1
COc1ccc(S(=O)(=O)Nc2cccc(-c3ccc4nncn4n3)c2)c(OC)c1
    0.67, i, 0.7, -3%, -3.4, 3.5, -4.3
N#CC1(c2c(O)nc3n(c2=O)CCCS3)CCCCC1
    0.64, ., ., 1%, 2.1, 0.0, 0.9
C=CCNC(=O)CSc1nc2sc3c(c2c(=O)n1CCC)CCC3
    0.71, i, -2.8, ., -1.2, 6.3, 0.5
Cc1ccnc2nc(C(=O)N3CCN(c4ccc(F)cc4)CC3)nn12
    0.71, ., ., 9%, 2.2, 0.9, 7.5
CC1(C(=O)O)CCN1C(=O)c1cccc(C(F)(F)F)c1 (stereo not given)
    ., i, 1.8, ., -3.2, ., .
CC(NC(=O)c1cc2ccccc2o1)C(=O)O (stereo not given)
    0.7, ., ., -3%, 1.0, 2.8, 2.4
Cc1ccc(NC(=O)c2ccccn2)cc1S(=O)(=O)N1CCOCC1
    0.73, i, -0.5, 28%, -2.2, -1.2, 1.5
CCN(C(=O)c1ccco1)c1nc(CC(=O)Nc2ccc(Cl)cc2)cs1
    0.7, i, 4.2, -3%, 7.9, 1.4, -1.9
COc1ccc(CC(=O)NC2CC(C)(C)NC(C)(C)C2)cc1
    0.68, ., ., 17%, -4.2, 1.0, 6.2
COc1ccccc1N1CCN(S(=O)(=O)c2ccc3c(c2)NC(=O)CS3)CC1
    0.74, i, 5.1, 14%, 2.6, 2.5, -3.2
CCn1c(/C=N/n2cnnc2)nc2ccccc21
    ., i, -2.9, 19%, 1.2, ., -2.0
CCc1nnc(NC(=O)CSc2nncc(=O)n2N)s1
    0.68, i, 0.2, ., 3.0, 5.6, 4.3
COc1ccc(NC(=O)CCN2CCN(S(=O)(=O)c3ccc(Cl)cc3)CC2)cc1
    0.71, i, -1.9, 28%, 1.8, 0.4, -3.1
O=c1c(Cc2ccc(Cl)cc2)c(O)ccn1Cc1cccs1
    0.66, i, -7.7, 0%, -0.8, -1.1, 1.8
O=C(c1cn2ccccc2n1)N1CCc2c([nH]c3ccccc23)C1c1ccccn1 (stereo not given)
    0.61, i, 6.6, 4%, -0.4, 0.9, 3.7
Cc1cc(-c2nn(-c3ccccc3F)cc2CN(C)CC(O)CO)c(C)s1 (stereo not given)
    0.68, i, 1.7, 14%, -1.8, 1.7, -1.3
CN(Cc1cnn(C)c1)C(=O)c1ccc(OC2CCN(CCc3ccccc3)CC2)cc1
    0.71, i, -0.9, 12%, -0.7, 3.2, 1.6
Cn1nc(C(F)(F)F)c(C(=O)Nc2cccc(Cl)c2)c1Cl
    0.65, ., ., -6%, 2.0, 1.8, 5.3
N=c1sccn1CC(=O)Nc1ccccc1Cc1ccccc1
    0.71, ., ., 2%, 3.2, -0.5, 2.5
CN(Cc1ccccc1F)C(=O)c1ccc(Oc2ccccc2)cc1
    0.66, i, -1.0, -6%, -0.3, 4.0, 0.3
CC(=O)Oc1ccc(Cn2c(C)c(C(=O)NCc3ccc4c(c3)OCCO4)sc2=O)cc1
    ., i, 1.6, ., 3.2, ., .
Cc1ccc(S(=O)(=O)NCc2ccc(C(=O)NC3CCC(O)CC3)cc2)cc1C (stereo not given)
    0.66, i, 0.4, -1%, 0.7, 2.9, .
CCOc1ccc(CCNC(=O)COC(=O)CSc2ccc(C)cc2)cc1OCC
    0.69, i, 1.2, -2%, 1.1, 4.6, .
O=C(Nc1ccc(N2CCOCC2)cc1)c1ccc2c(c1)OCO2
    0.67, i, 0.1, 13%, 4.3, -1.6, 1.8
O=C(NNC1=C(C(=O)C(F)(F)F)CCC1)c1cccc(O)c1
    0.68, ., ., ?, -3.0, 8.3, -3.1
COC(=O)c1ccccc1C(=O)N1CCCC(C(=O)c2ccc(OC)c(OC)c2)C1 (stereo not given)
    0.69, i, -4.0, -2%, -0.7, 1.2, 3.1
Cn1c(N/N=C/c2cccs2)nc2c1c(=O)n(Cc1ccccc1)c(=O)n2C
    ., ., ., 6%, 2.1, ., 0.0
CCCc1nnc(NC(=O)C2CCN(C(=O)c3ccco3)CC2)s1
    0.66, i, -1.3, -2%, -3.0, 6.7, -0.1
CCCc1[nH]n(-c2ccc(F)cc2)c(=O)c1C=Nc1cccc(F)c1
    0.72, ., ., -10%, 0.8, 4.9, -6.0
O=C(Nc1cccnc1)c1ccccc1Oc1ccccc1
    0.69, ., ., 3%, -0.1, 2.0, -2.1
COC(=O)CC(NS(=O)(=O)c1cccs1)c1cccc2ccccc12 (stereo not given)
    0.71, ., ., 64%, -4.7, 4.0, 4.9
CN(C)c1ccc(C=NCC2COc3ccccc3O2)cc1 (stereo not given)
    0.65, ., -0.8, ., -0.7, 12, -3.3
O=C(Cc1coc2ccc3ccccc3c12)NCc1ccccc1
    0.65, i, -7.4, 7%, 0.6, 2.8, 3.7
CC(C)CCSc1nc(N)c(C#N)cc1C#N
    0.66, ., ., -45%, 0.9, -38, 11
O=C(CSc1ncnc2ccccc12)Nc1cccc(S(=O)(=O)N2CCOCC2)c1
    0.64, i, -1.8, 74%, 2.5, 11, -6.0
O=C(COC(=O)c1cnc(Cl)c(Cl)c1)NCc1cccs1
    0.7, i, -9.0, -10%, 0.9, -0.4, 1.2
O=C(COC(=O)c1ccco1)Nc1nc2ccccc2s1
    0.7, ., ., 1%, 1.9, -1.1, -1.9
O=C(Nc1cc(C(F)(F)F)ccc1N1CCOCC1)c1ccccc1F
    0.75, ., ., -7%, -1.4, -3.1, 1.2
Cc1ccc([N+](=O)[O-])cc1S(=O)(=O)Nc1cccc(S(=O)(=O)Nc2ccccc2C(=O)O)c1
    0.71, ., -0.7, ., -2.8, 5.4, .
CC(C)OCCCN(C)C1CCN(S(=O)(=O)c2ccc(-c3ccc(=O)[nH]n3)s2)CC1
    0.73, i, -0.6, ., -0.2, 3.2, 1.6

# (list continues)
# Each structure is followed by: E coli growth, FGF22 binding, MLL AF4-AF9 inh, Vif A3G, HNF4A DNA FP, UCH37 inh, RanGTP-Impb inh
COc1ccc(-c2nc(CN(C)C(C)c3ccon3)c(C)o2)c(C)c1C (stereo not given)
    0.64, ., 2.1, -3%, 4.5, 3.2, 3.0
C#CCOc1c(Cl)cc(C2C3=C(CCCC3=O)N(CC(=O)O)C3=C2C(=O)CCC3)cc1OC
    ., i, -5.4, ., -1.7, ., 127*
CCOC(=O)c1cc2c(c(CCO)n1)[C@H](CCO)N(S(=O)C(C)(C)C)C2 (stereo not given in full)
    ., i, -1.6, -4%, -1.2, ., .
CCCCOC(=O)CSc1n[nH]c(=O)[nH]c1=O
    0.71, ., ., 25%, 1.2, 3.6, 2.2
COc1ccc([N+](=O)[O-])cc1NC(=O)CSc1nncn1-c1ccccc1
    0.67, i, -0.8, 9%, -1.5, 3.1, 3.1
Cc1nc2ccc(NC(=O)N(C)c3ccccc3)cc2s1
    0.69, i, 1.6, 5%, -1.7, 0.3, 0.4
COCCNC(=S)N/N=C(\C)c1ccccc1O
    ., ., ., -7%, 1.0, ., 1.1
C=CCOc1ccccc1/C=N/O
    ., ., ., 4%, 0.2, ., -4.3
CCOC(=O)N1CCN(C(=O)c2cc(-c3ccc(OCC)cc3)nc3ccccc23)CC1
    0.65, ., ., -5%, -0.8, -283, -5.7
O=C1Nc2ccc(Br)cc2/C1=C/C(=O)c1ccccc1
    ., i, 4.3, -2%, 3.5, ., .
COc1ccc(C(=O)C2CCCN(C(=O)C3CCOCC3)C2)cc1OC (stereo not given)
    0.71, i, -2.2, ., 3.3, 1.6, -0.7
Cc1cccc(C)c1Nc1c(-c2ccccn2)nc2ccccn12
    0.52, ., ., 4%, 0.7, -1.4, 2.9
O=C(CCC(NC(=O)OCc1ccccc1)C(=O)OCC(=O)N1CCCCC1)OCC(=O)N1CCCCC1 (stereo not given)
    0.72, ., ., 3%, -0.8, 4.4, -1.2
Cc1ccc(NC(=S)NCc2ccc3c(c2)OCO3)c(C)c1
    0.75, ., ., -3%, -2.1, 2.3, -0.8
CCOc1ccc(OCCOCCNCCOC)cc1
    ., ., ., 0%, 0.7, -0.3, 3.0
CC(C)NC(=S)Nc1ccc(S(=O)(=O)Nc2ncccn2)cc1
    0.69, i, 0.2, 13%, -1.6, 0.0, 3.1
C[C@@H]1CN([C@@H](C)CO)C(=O)c2cc(N(C)C)ccc2O[C@@H](C)CCCCO[C@@H]1CN(C)Cc1ccc2c(c1)OCO2
    ., i, 18&16&7.3, 4%, 1.7, ., .
Nc1nc2c(nc(N3CCCCC3)n2[C@@H]2O[C@H](CO)[C@@H](O)[C@H]2O)c(=O)[nH]1
    0.69, i, -7.1, ., 3.6, 2.4, 3.3
Cc1ccc(S(=O)(=O)NNC(=O)CC#N)cc1
    0.65, i, -0.6, ., 4.5, 0.0, -3.0
CC(C)CC1Nc2ncnc(N3CCN(c4ccccc4)CC3)c2N(Cc2ccccc2)C1=O (stereo not given)
    0.72, i, 2.5, ., 3.4&3.6, 2.2, 7.4
O=C(COC(=O)c1ccc(O)cc1)Nc1ccc(Cl)cc1
    0.63, i, -0.9, 31%, ., 4.3, 2.0
N[C@@H](Cc1cc(I)c(O)c(I)c1)C(=O)O
    ., i, -3.7, 17%, -2.6, 3.8, 6.0
Cc1noc(C)c1NC(=O)N(C)C[C@@H]1OCc2ccccc2-c2c(n(C)c3ccccc23)C(=O)N([C@H](C)CO)C[C@H]1C
    ., i, 1.2, -1%, 4.4, ., .
Cc1cccn2c(=O)nc(SCC(=O)NC3CCCC3)nc12
    0.69, i, -0.3, -7%, 0.2, -1.2, -1.6
Cc1ccc(C(=O)N=c2sccn2C)cc1C
    0.64, i, -0.9, ., -1.1, 1.4, 4.6
C[C@H](CO)N1C[C@H](C)[C@@H](CN(C)C(=O)Nc2ccc(C(F)(F)F)cc2)Oc2c(NC(=O)C3CCCCC3)cccc2C1=O
    0.69, i, -0.7&0.7, -2%, -2.8, 0.3, .
CC(=O)Nc1ccc(NC(=O)C2CCN(S(=O)(=O)c3cccc4nonc34)CC2)cc1
    0.62, ., ., -2%, 3.1, 0.0, 1.2
NNC(=O)c1nc(-c2ccccc2)n2c1CCCCC2
    0.74, i, ?, -7%, -1.9, 3.8, 1.3
OC[C@@H]1CN(Cc2ccncc2)C[C@H](n2cnc3c(N4CCOCC4)ncnc32)O1
    ., i, -1.6, ., -0.3, ., .
